T cruzi repl = T. cruzi replication inhibition; 300,000 tested, 1.4% active; T. cruzi beta-gal in NIH3T3, luminescence, 90 h; AID 1885; inhibition, % (no concentration beside the values);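 active means mean inhibition across valid replicates above about 55%, limit read from the data; inconclusive means mean below that limit but half or more replicates reach it; inactive means mean below it, under half of replicates reach it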;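 further: signal also drops with host cell toxicity which is not excluded here; 0% = plate median of DMSO wells and 100% = zero luminescence signal; higher percent means less beta-gal luminescence so fewer parasites; stock transfer was 50 nL into about 50 µL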
rRNA inh HTS = selective bacterial rRNA inhibition in E. coli; E. coli WT GFP vs humanized-ribosome RFP mutants, fluorescence, 24 h; active compounds read low; DMSO median 0, no signal -100; GFP signal change (wild-type ribosome), % (concentration not given with the values); 350,000 tested, 1.6% active; AID 720706;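 active means significant combined selectivity score with lowered wild-type GFP, culture density cut under 30%, mutant RFP and density less affected; inactive means any of these conditions unmet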; further: one replicate is shown; some compounds called inactive have numbers as strong as hits
AF4-AF9 inh = MLL-AF4/AF9 protein interaction inhibition; AlphaScreen, biotin-AF4 peptide binding to FLAG-AF9; inhibition, % at 10 µM; 350,000 tested, 0.47% active; AID 651704;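 active means every replicate reaching a set inhibition limit, whatever the replicate mean, cut at about 25% in these data; inconclusive means mean inhibition reaches that limit but some replicates miss it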;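 further: 0% = plate neutral control median and 100% = total signal loss; the record names both 10 and 1 µM as test concentration; the first replicate is given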
Target sequence (P42568 whole entry, looked up): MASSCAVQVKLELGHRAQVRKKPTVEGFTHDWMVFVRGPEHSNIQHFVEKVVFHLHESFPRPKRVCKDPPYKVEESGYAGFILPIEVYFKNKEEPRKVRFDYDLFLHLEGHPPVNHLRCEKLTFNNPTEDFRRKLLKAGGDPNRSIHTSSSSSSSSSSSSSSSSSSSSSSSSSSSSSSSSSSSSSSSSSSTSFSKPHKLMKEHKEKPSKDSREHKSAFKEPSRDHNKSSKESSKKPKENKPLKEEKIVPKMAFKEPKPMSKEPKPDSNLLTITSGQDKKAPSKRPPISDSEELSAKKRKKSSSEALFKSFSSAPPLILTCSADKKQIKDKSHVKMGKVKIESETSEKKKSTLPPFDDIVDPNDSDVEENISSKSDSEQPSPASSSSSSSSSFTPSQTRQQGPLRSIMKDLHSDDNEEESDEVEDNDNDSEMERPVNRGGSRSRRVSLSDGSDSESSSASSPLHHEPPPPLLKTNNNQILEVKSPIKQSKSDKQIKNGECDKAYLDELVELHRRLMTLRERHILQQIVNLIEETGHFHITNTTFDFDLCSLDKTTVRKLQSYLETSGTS
FGF22 binding = shifts melting point of recombinant human FGF22; calls only at 9.99 µM; 340,000 tested, 1.5% active; AID 651658; recombinant FGF22 thermal shift, SYPRO orange fluorescence; percent of sucrose octasulfate shift, DMSO zero;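 active means melting point raised past a set limit in the mean and every replicate; inconclusive means no clear call; three in four hits are not shown here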
Target sequence (Q9HCT0 whole entry, looked up): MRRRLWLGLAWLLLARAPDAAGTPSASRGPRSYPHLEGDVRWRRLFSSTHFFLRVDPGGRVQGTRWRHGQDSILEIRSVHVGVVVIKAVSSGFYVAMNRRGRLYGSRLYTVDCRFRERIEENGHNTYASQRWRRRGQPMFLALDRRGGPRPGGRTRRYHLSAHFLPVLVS
Beta apoptosis = beta cell apoptosis inhibition; INS-1E cytokine-induced death, ATP luminescence, 48 h; percent of positive-control rescue, neutral wells zero; protection from apoptosis, % (test concentration not listed); 300,000 tested, 0.8% active;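 active means all replicates at 75% or more, or half of them and the mean; inconclusive means half reach 75% but not the mean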;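 further: 0% = cytokine-treated negative control wells and 100% = positive control rescue; higher means more ATP so stronger rescue from cytokine killing; wells of about 40 µL received 100 nL stock; the first replicate is given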
ALR inh = blocks human ALR sulfhydryl oxidase activity; P55789; purified ALR, DTT oxidation, H2O2 HRP-luminol luminescence; inhibition, % (concentration not given with the values); 290,000 tested, 3.8% active; AID 485317;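 active means mean and each replicate at 75% or more; inconclusive means only one of the two met; inactive means neither met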;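 further: stock transfer was 7.5 nL into about 7.5 µL; 0% = neutral wells and 100% = wells with inactivated enzyme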
Target sequence (P55789 whole entry, looked up): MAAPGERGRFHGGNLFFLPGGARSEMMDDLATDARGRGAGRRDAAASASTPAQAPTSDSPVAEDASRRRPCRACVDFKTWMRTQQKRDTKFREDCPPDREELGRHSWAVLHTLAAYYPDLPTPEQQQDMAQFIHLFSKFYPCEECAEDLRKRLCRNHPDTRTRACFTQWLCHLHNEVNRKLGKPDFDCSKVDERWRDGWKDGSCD
Calb FLC = C. albicans growth modulation with fluconazole; C. albicans CaCi-2 (fluconazole-resistant clinical isolate) + fluconazole, Alamar Blue growth, 48 h; growth inhibition, % (test concentration not listed); 300,000 tested, 0.57% active; AID 1979;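 active means most replicates above 75%; inconclusive means exactly half above 75%; inactive means most below 75%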;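 further: all wells also contain fluconazole at 8 µg/ml as a sub-toxic cotreatment; 0% = median of DMSO wells and 100% = median of geldanamycin control wells; wells of about 8 µL received 7.5 nL stock; the first replicate is given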
RanGTP-Imp inh = disruptors of Ran-importin-beta complex formation – biochemical, FRET, CFP-Ran, YFP-importin-beta, homogeneous, primary screen; cell-free CFP-Ran/YFP-importin-beta FRET ratio; inhibition, % (concentration not given with the values); 300,000 tested, 1.1% active;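 active means most replicates above 15%; inconclusive means exactly half above 15%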;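 further: 0% = DMSO wells and 100% = Ran loaded with GDP instead of GTP; wells of about 40 µL received 100 nL stock; the first replicate is given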
rRNA inh HTS OD600 = recorded beside rRNA inh HTS, whose call it bears; OD600 change, %; measured here: OD600 growth;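 optical density of the mix in the first replicate; 0 = DMSO median and -100 = no signal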
rRNA inh HTS RFP = second read-out of rRNA inh HTS, no call of its own (marks repeat the call); RFP signal change, %; measured here: RFP humanized mutant strains;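 first replicate; 0 = DMSO median and -100 = no signal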
* = called active by the depositor; i = inactive; ? = inconclusive; / = not tested or not shown.

molecule	T cruzi repl	rRNA inh HTS	rRNA inh HTS OD600	rRNA inh HTS RFP	AF4-AF9 inh	FGF22 binding	Beta apoptosis	ALR inh	Calb FLC	RanGTP-Imp inh
CCc1ccccc1OCC(=O)Nc1ccc(C)c(S(=O)(=O)N2CCCCCC2)c1	/	3	-1	-0.4	0.6	i	-2	-1	/	/
COc1ccc(S(=O)(=O)NCCCCCC(=O)NCCCN2CCOCC2)cc1	3	8	5	-6.5	-0.4	i	1	3	30	-1.4
O=C(N/N=C/c1ccccc1OC(F)F)NC1CCCCC1	8	-8	-9	6.8	0.3	i	2	-12	2	1.6
Cc1noc(C)c1C(=O)NC(Cc1c[nH]c2ccccc12)C(=O)O (stereo not drawn)	/	9	16	5.9	2.0	i	1	0	/	/
S=c1nc(-c2cc(Cl)cc(Cl)c2)[nH][nH]1	4	-17*	2.2*	0.0*	-2.4	i	/	98*	-4	-0.6
CCn1c2ccccc2c2nc3cc(OC)c(OC)cc3nc21	41	/	/	/	/	/	12	-6	17	89*
COc1ccc(C(C#N)C2(C)OCCO2)cc1OC (stereo not drawn)	-12	/	/	/	/	/	-1	-3	-19	1.1
Cn1c(OCc2ccco2)nc2c1c(=O)n(Cc1ccc(Cl)c(Cl)c1)c(=O)n2C	5	/	/	/	/	/	-8	-15	-11	-3.1
CCCNc1cc(C)oc(=O)c1C(=O)CC	-4	-1	6	-0.8	2.2	i	-1	-8	9	-3.9
CCOC(=O)c1[nH]c2ccccc2c1N=CN(C)C	4	/	/	/	/	/	0	99*	-5	-3.7
CCOc1ccc(/C=N/NC(=O)c2nnn(-c3nonc3N)c2CN(C)C2CCCCC2)cc1	5	5	14	-0.2	-1.8	i	0	1	/	4.1
COc1ccccc1-c1cc(C(=O)Nc2cc(C)on2)no1	8	5	13	2.0	-0.1	i	-11	-10	1	6.2
COC(=O)c1nn2c(C(F)(F)F)cc(-c3ccc(Br)o3)nc2c1Br	2	/	/	/	/	/	-2	2	-24	-8.2
COc1ccc(C(C#N)N2CCOCC2)cc1 (stereo not drawn)	-26	/	/	/	/	/	-2	-1	-8	1.3
COc1ccc(NC(=O)C2CC(=O)N(CCc3ccc(F)cc3)C2)c(OC)c1 (stereo not drawn)	2	0	2	1.0	2.5	i	2	-7	-5	0.8

Two entries picked at random from the list so far, as already listed:
molecule	T cruzi repl	rRNA inh HTS	rRNA inh HTS OD600	rRNA inh HTS RFP	AF4-AF9 inh	FGF22 binding	Beta apoptosis	ALR inh	Calb FLC	RanGTP-Imp inh
Cn1c(OCc2ccco2)nc2c1c(=O)n(Cc1ccc(Cl)c(Cl)c1)c(=O)n2C	5	/	/	/	/	/	-8	-15	-11	-3.1
COc1ccccc1-c1cc(C(=O)Nc2cc(C)on2)no1	8	5	13	2.0	-0.1	i	-11	-10	1	6.2

Following part.
molecule	T cruzi repl	rRNA inh HTS	rRNA inh HTS OD600	rRNA inh HTS RFP	AF4-AF9 inh	FGF22 binding	Beta apoptosis	ALR inh	Calb FLC	RanGTP-Imp inh
O=C(c1c(F)cccc1Cl)N1CCN(c2ccccn2)CC1	-13	-1	2	-0.9	-3.1	i	-5	/	2	-1.5
CNC(=O)COc1coc(CN2CCN(c3ccccc3F)CC2)cc1=O	-14	15	7	0.7	-3.3	i	/	-1	-3	-1.3
Cc1nn(C)c(C(=O)NC2C3CC4CC(C3)CC2C4)c1Cl (stereo not drawn)	4	/	/	/	/	/	5	0	-13	0.6
O=C(CSc1ccc2nnc(-c3ccccn3)n2n1)Nc1cccc(F)c1	-2	8	1	0.4	-0.9	i	0	-12	-13	-0.2
O=C(O)/C=C/C(=O)Nc1ccc(SC(F)(F)F)cc1	-17	/	/	/	/	/	0	47	0	0.2
CC(CCc1ccccc1)NS(=O)(=O)c1ccccc1F (stereo not drawn)	1	-9	-19	-0.7	1.2	i	0	-2	-12	-3.5
O=S(=O)(c1ccc2ccccc2c1)N1CCN(S(=O)(=O)c2c(F)cccc2F)CC1	/	2	-1	-2.0	-14	i	-6	5	/	/
COc1ccc(NS(=O)(=O)c2cccc(NC(=O)CCC(=O)c3cccs3)c2)cc1	2	-10	-2	8.4	1.0	i	/	-2	-7	0.6
CC(=O)Nc1ccc(Nc2cc(C)nc3c(-c4ccc(Cl)cc4)cnn23)cc1	34	/	/	/	/	/	7	15	0	2.3
CC(C)Oc1cc(NC(=O)CS(=O)CC(=O)N(C)C)c(Cl)cc1Cl (stereo not drawn)	-1	-3	7	-2.6	1.2	i	-3	-1	-9	4.8
O=C(CCC(=O)c1cccs1)NCC(=O)Nc1ccc(F)c(F)c1F	-12	17	15	4.6	-0.4	i	-5	-8	-8	?
CCOC(=O)C1=C(C)N=c2sc(=C(C)C)c(=O)n2C1c1ccc(N(C)C)cc1 (stereo not drawn)	24	12	2	-2.4	?	i	-1	30	-3	12
CC1CCN(S(=O)(=O)c2ccc3c(c2)N(CC(=O)NCCN2C(C)CCCC2C)C(=O)CS3)CC1 (stereo not drawn)	27	5	2	2.1	4.3	i	-5	-1	-3	8.7
COc1ccc(S(=O)(=O)N2CCC(Cc3ccccc3)CC2)cc1C(N)=O	-12	9	18	-0.3	-1.0	i	4	1	1	2.4
CC(C)c1cc(N2CCOCC2)n2ncc(-c3ccccc3)c2n1	7	8	12	-0.8	-2.1	i	-14	8	7	-0.8

Given with values under each structure: part of the list above
Values in the order – T cruzi repl	rRNA inh HTS	rRNA inh HTS OD600	rRNA inh HTS RFP	AF4-AF9 inh	FGF22 binding	Beta apoptosis	ALR inh	Calb FLC	RanGTP-Imp inh
O=C(CSc1ccc2nnc(-c3ccccn3)n2n1)Nc1cccc(F)c1
 : -2	8	1	0.4	-0.9	i	0	-12	-13	-0.2
O=C(O)/C=C/C(=O)Nc1ccc(SC(F)(F)F)cc1
 : -17	/	/	/	/	/	0	47	0	0.2
CC(CCc1ccccc1)NS(=O)(=O)c1ccccc1F (stereo not drawn)
 : 1	-9	-19	-0.7	1.2	i	0	-2	-12	-3.5
O=S(=O)(c1ccc2ccccc2c1)N1CCN(S(=O)(=O)c2c(F)cccc2F)CC1
 : /	2	-1	-2.0	-14	i	-6	5	/	/
COc1ccc(NS(=O)(=O)c2cccc(NC(=O)CCC(=O)c3cccs3)c2)cc1
 : 2	-10	-2	8.4	1.0	i	/	-2	-7	0.6
CC(=O)Nc1ccc(Nc2cc(C)nc3c(-c4ccc(Cl)cc4)cnn23)cc1
 : 34	/	/	/	/	/	7	15	0	2.3
CC(C)Oc1cc(NC(=O)CS(=O)CC(=O)N(C)C)c(Cl)cc1Cl (stereo not drawn)
 : -1	-3	7	-2.6	1.2	i	-3	-1	-9	4.8
O=C(CCC(=O)c1cccs1)NCC(=O)Nc1ccc(F)c(F)c1F
 : -12	17	15	4.6	-0.4	i	-5	-8	-8	?
CCOC(=O)C1=C(C)N=c2sc(=C(C)C)c(=O)n2C1c1ccc(N(C)C)cc1 (stereo not drawn)
 : 24	12	2	-2.4	?	i	-1	30	-3	12
CC1CCN(S(=O)(=O)c2ccc3c(c2)N(CC(=O)NCCN2C(C)CCCC2C)C(=O)CS3)CC1 (stereo not drawn)
 : 27	5	2	2.1	4.3	i	-5	-1	-3	8.7
COc1ccc(S(=O)(=O)N2CCC(Cc3ccccc3)CC2)cc1C(N)=O
 : -12	9	18	-0.3	-1.0	i	4	1	1	2.4
CC(C)c1cc(N2CCOCC2)n2ncc(-c3ccccc3)c2n1
 : 7	8	12	-0.8	-2.1	i	-14	8	7	-0.8

Additional compounds follow:
molecule	T cruzi repl	rRNA inh HTS	rRNA inh HTS OD600	rRNA inh HTS RFP	AF4-AF9 inh	FGF22 binding	Beta apoptosis	ALR inh	Calb FLC	RanGTP-Imp inh
Cc1nc2cc(-n3ccc(=O)cc3)ccc2n1-c1ccccc1	-11	/	/	/	/	/	6	-6	3	0.6
COC(=O)C1=C(C)NC(C)=C(C(=O)OC)C1c1cc2cc(C)ccc2[nH]c1=O	14	/	/	/	/	/	-2	/	-1	9.2
OCC(O)C1OC(Nc2ccc(Cl)cc2)C(O)C1O (stereo not drawn)	1	13	3	-11	/	i	-2	-6	-3	-2.5
O=c1c(Cl)c(N2CCCCC2)cnn1-c1nc2ccccc2[nH]1	5	/	/	/	/	/	42	/	8	-0.5
COc1ccc(-c2nc(CN3CCC(C(=O)NC4CC4)CC3)c(C)o2)cc1OC	-14	4	5	-1.5	-2.6	i	-2	-4	-3	-0.4
O=C(CNC(=O)c1ccco1)N/N=C/c1ccc(C(=O)O)cc1	-21	15	12	-2.5	1.0	i	-2	/	-5	-1.0
O=C(O)c1cc(O)ccc1NC(=O)C(c1ccccc1)c1ccccc1	-6	2	-2	3.9	-2.0	i	25	95*	9	-2.8
O=C(c1cccc(C(F)(F)F)c1)N1CCN(S(=O)(=O)c2ccc(Cl)s2)CC1	-4	-6	-19	2.5	1.0	i	4	1	1	-3.7
CC1C(=NO)C(C)C(c2ccccc2)NC1c1ccccc1 (stereo not drawn)	-1	-4	-9	3.2	/	/	2	32	3	3.9
O=C1CS/C(=N/N=C/c2ccc(OS(=O)(=O)c3ccccc3)cc2)N1	-17	5	5	-1.3	-1.2	i	-8	-1	-7	3.0
COC(=O)c1ccc(S(=O)(=O)NCc2ccco2)n1C	-2	13	2	-1.9	4.8	i	-4	-4	2	0.8
CSc1ccccc1C(=O)Nc1ncn[nH]1	5	6	-1	-4.0	-8.6	i	-4	-3	3	0.4
O=C(NC1CCCC1)C(c1cccnc1)N(Cc1ccc(F)cc1)C(=O)c1csnn1 (stereo not drawn)	6	/	/	/	-6.9	i	-5	-1	5	3.2
Cc1ccc2c(c1)N(C(=O)CCC(=O)NCCN1CCOCC1)CCO2	-8	14	15	-0.4	-3.2	i	-5	-5	22	4.0
Cc1ccc(NC(=O)CSc2nnc3c(n2)[nH]c2ccccc23)cc1	0	/	/	/	3.5	i	0	-6	-7	0.3
CC(=O)c1ccc(NC(=S)N2CCN(C(=S)Nc3ccc(C(C)=O)cc3)C(C)C2)cc1 (stereo not drawn)	-8	-5	-1	-0.6	0.6	i	1	-9	-22	6.0

Some of the compounds tested. The share of hits here may be higher or lower than overall.
